Source: PubChem BioAssay (Johns Hopkins Ion Channel Center)
KCNQ2 block = KCNQ2 channel blockers in CHO-K1 cells – cell-based, FluxOR thallium flux, B-score, primary screen (AID 2156) | O88943 | actives 1.1% (n = 310,000) | 20 min; active compounds read low; only compounds with negative scores are shown here; some inactives read as strong as hits | B-score at 10 µM;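 active = fluorescence ratio B-score at most minus 3 library SDs, with starting brightness B-score within 2 library SDs, cut at about -5.5 in these data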
Target sequence (O88943 whole entry, looked up): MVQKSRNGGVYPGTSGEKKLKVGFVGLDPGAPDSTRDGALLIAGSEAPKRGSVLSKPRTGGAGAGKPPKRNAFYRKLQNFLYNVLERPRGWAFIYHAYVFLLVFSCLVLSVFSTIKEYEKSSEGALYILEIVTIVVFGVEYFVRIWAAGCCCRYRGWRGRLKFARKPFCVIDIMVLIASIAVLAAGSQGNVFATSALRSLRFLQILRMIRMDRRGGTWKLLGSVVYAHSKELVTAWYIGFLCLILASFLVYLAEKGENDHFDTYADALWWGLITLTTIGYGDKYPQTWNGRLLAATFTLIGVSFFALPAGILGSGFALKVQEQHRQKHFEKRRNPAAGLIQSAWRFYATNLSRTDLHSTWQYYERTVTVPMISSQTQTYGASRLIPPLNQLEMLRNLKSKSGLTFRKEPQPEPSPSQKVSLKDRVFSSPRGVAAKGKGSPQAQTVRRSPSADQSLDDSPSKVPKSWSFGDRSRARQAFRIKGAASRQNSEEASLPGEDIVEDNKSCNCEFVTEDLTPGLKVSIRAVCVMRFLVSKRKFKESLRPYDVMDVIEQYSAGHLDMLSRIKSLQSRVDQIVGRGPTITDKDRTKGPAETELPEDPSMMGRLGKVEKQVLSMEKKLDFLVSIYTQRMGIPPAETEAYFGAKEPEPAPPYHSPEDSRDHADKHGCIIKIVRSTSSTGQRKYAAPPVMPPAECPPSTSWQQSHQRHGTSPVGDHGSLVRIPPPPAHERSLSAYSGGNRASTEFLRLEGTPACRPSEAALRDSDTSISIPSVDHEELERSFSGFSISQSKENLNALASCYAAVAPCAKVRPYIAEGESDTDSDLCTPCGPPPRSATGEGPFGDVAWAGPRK
KCNQ2 block baseline = further read-out of KCNQ2 block, marked with its call; B-score; measured here: initial fluorescence intensity artifact check;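 brightness before thallium and not channel activity; 0 = typical well and far values either way flag optical interference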
An asterisk follows results filed as active; i = inactive. A portion of the library (hit frequency here may not be typical).

No. | Structure | KCNQ2 block | KCNQ2 block baseline
1 | Oc1ccccc1-c1nnc2n1CCCCC2 | i | -0.02
2 | CCOC(=O)CN1C(=N)N(c2nc(NC(C)C)nc(NC(C)C)n2)CC1=O | i | -1.42
3 | O=C(N/N=C/c1cc2c(cc1Br)OCO2)C1COc2ccccc2O1 (configuration not stated) | i | 1.43
4 | COCCSc1ccccc1C(=O)NCCc1ccccc1 | i | 0.07
5 | O=C(Nc1ccc2c(c1)OCO2)[C@@H]1[C@@H]2C(=O)N(C3CCCCC3)C(=O)[C@@H]2C2c3ccccc3C=CN21 (some centres not stated) | i | 0.85
6 | Cc1ccc(N2CC(C(=O)NC3CCC(C)CC3)CC2=O)cc1 (configuration not stated) | i | 0.3
7 | CCOC(=O)C1=C(COc2ccccc2)NC(=O)NC1c1ccc2ccccc2c1 (configuration not stated) | i | 1.56
8 | CC(C)COC(=O)N1CC(O)CC1C(=O)O (configuration not stated) | i | 0.97
9 | CCCN1CC=C2C(C#N)=C(N)C(C#N)(C#N)C(c3cccc(OC)c3OC)C2C1 (configuration not stated) | i | 13.1
10 | COc1cc(C(=O)NCCC(=O)NC2CCCCC2)cc(OC)c1OC | i | -0.63
11 | O=C1CSC(=S)N1c1cccc(Br)c1 | i | -0.05
12 | Cc1cccc(C)c1NC(=O)CSc1nnc([C@@H]2CCCN2C(=O)OC(C)(C)C)o1 | i | -0.41
13 | CC(=O)Nc1cc2c3c(c1)CCN3C(=O)CC2 | i | 0.01
14 | O=C(Nc1cccnc1)c1ccc(N2CCOCC2)c([N+](=O)[O-])c1 | i | -0.78
15 | COc1ccc(N2C(=O)CSC23C(=O)N(CC(=O)NC2CCCC2)c2ccccc23)cc1 (configuration not stated) | i | -0.3
16 | CC1(C)CC(=NO)CC(C)(C)N1 | i | 2.13
17 | COc1ccccc1CNS(=O)(=O)c1ccc2c(c1)NC(=O)CS2 | i | 1.03
18 | Cc1cnccc1CN(C)Cc1nc(Cc2ccccc2Cl)no1 | i | 0.02
19 | O=C(CSc1ccc(-c2cccs2)nn1)NCc1ccccc1Cl | i | 0.93
20 | Cc1ccc(S(=O)(=O)N2CCN(C(=O)CN3C(=O)c4ccc([N+](=O)[O-])cc4C3=O)CC2)c(C)c1 | i | 0.45
21 | COc1ccc(OC)c(S(=O)(=O)N2CCC(C(=O)Nc3ccccc3)CC2)c1 | i | -0.01
22 | Cc1ccccc1CN(C)Cc1cc(=O)oc2c(C)c(C)ccc12 | i | -0.03
23 | CCc1sc(N(C(=O)Cc2ccccc2)c2ccccc2F)nc1-c1ccc(C)cc1 | i | 1.32
24 | CC(C)Oc1ccccc1/C=N/Nc1ccccc1[N+](=O)[O-] | i | -0.77
25 | CC(=O)c1cnc(SCCN2C(=O)c3ccccc3C2=O)nc1C | i | -0.21
26 | COc1ccc(CCNc2nc(-c3sc(N)nc3C)cs2)cc1OC | i | 0.04
27 | Cc1ccc(NC2=NC3(CCCC3)N=C(N)N2)c(C)c1 | i | -1.01
28 | COC(=O)CC1C(=O)NCCN1C(=S)Nc1cccc(C)c1 (configuration not stated) | i | 0.08
29 | O=C(CSc1nc(C2CC2)nc2ccccc12)N1c2ccccc2Sc2ccc(C(F)(F)F)cc21 | i | -0.26
30 | Cc1ccc(N(C(=O)CNC(=O)c2ccco2)C(C(=O)NC2CCCCC2)c2cccnc2)cc1 (configuration not stated) | i | -1.98

Entries of single compounds from above. Order of screens: KCNQ2 block	KCNQ2 block baseline
Shown for COc1ccc(N2C(=O)CSC23C(=O)N(CC(=O)NC2CCCC2)c2ccccc23)cc1 (configuration not stated) : i	-0.3
Shown for COC(=O)CC1C(=O)NCCN1C(=S)Nc1cccc(C)c1 (configuration not stated) : i	0.08
Shown for Cc1ccc(NC2=NC3(CCCC3)N=C(N)N2)c(C)c1 : i	-1.01
Shown for O=C1CSC(=S)N1c1cccc(Br)c1 : i	-0.05

Retrieved by compound from the list above:
No. | Structure | KCNQ2 block | KCNQ2 block baseline
8 | CC(C)COC(=O)N1CC(O)CC1C(=O)O (configuration not stated) | i | 0.97
11 | O=C1CSC(=S)N1c1cccc(Br)c1 | i | -0.05
7 | CCOC(=O)C1=C(COc2ccccc2)NC(=O)NC1c1ccc2ccccc2c1 (configuration not stated) | i | 1.56
5 | O=C(Nc1ccc2c(c1)OCO2)[C@@H]1[C@@H]2C(=O)N(C3CCCCC3)C(=O)[C@@H]2C2c3ccccc3C=CN21 (some centres not stated) | i | 0.85

Quoted from the listing.
entry 19 – KCNQ2 block baseline: 0.93
entry 30 – KCNQ2 block baseline: -1.98
entry 1 – KCNQ2 block baseline: -0.02

The list goes on.
No. | Structure | KCNQ2 block | KCNQ2 block baseline
31 | N#CCCN1CCN(C(=S)c2ccc(-c3cc(Cl)ccc3Cl)o2)CC1 | i | -2.04
32 | COC(=O)c1ccccc1Sc1ncnc2onc(C)c12 | i | 0.08
33 | Cc1ccc(S(=O)(=O)N(C)c2ccc(C(=O)N3CCc4ccccc4C3)cc2)cc1 | i | 0.12
34 | FC(F)(F)c1cnc(Oc2ccccc2-c2nnc(-c3ccc(Cl)cc3)o2)c(Cl)c1 | i | 0.28
35 | COc1ccc(C(=O)CCc2nc3ccccc3s2)cc1 | i | 0.58
36 | Cc1ccccc1C(=O)NC1CCSC1=O (configuration not stated) | i | -0.02
37 | O=C(O)C1CCCCC1C(=O)NCc1ccncc1 (configuration not stated) | i | -0.33
38 | COc1cccc(N2CCN(CC(=O)Nc3ccc(-n4cnnn4)cc3)CC2)c1 | i | -0.22
39 | CCCn1c(=O)c2c(c3ccccc31)OCC(=O)N2 | i | -1.45
40 | CC(=O)Nc1ccc(NS(=O)(=O)c2ccccc2)c2ccccc12 | i | 0.01
41 | N#Cc1c(NC(NC(=O)c2ccco2)C(=O)c2ccccc2)sc2c1CCCC2 (configuration not stated) | i | -0.65
42 | O=C(CCc1nc2ccccc2c(=O)[nH]1)OCC(=O)c1ccc(C2CCCCC2)cc1 | i | -1.23
43 | Cn1nc(C(F)(F)F)c(/C=N/OC(=O)c2ccccc2)c1Sc1ccc(Cl)cc1 | -5.69* | -0.65*
44 | CCOC(=O)C1=C(C)n2c(s/c(=C3\C(=O)Nc4ccccc43)c2=O)=NC1c1ccc(OC)cc1 (configuration not stated) | i | 0.61
45 | NS(=O)(=O)c1cc(C(=O)OCC(=O)c2ccccc2)c(Cl)cc1Cl | i | 2.26
46 | COC(=O)c1ccc(COc2ccccc2/C=C(\C#N)C(=O)NC(C)C)cc1 | i | -0.35
47 | CC(=O)N1c2ccc(S(=O)(=O)NCC3CCC(C(=O)N4CCC(C)CC4)CC3)cc2CC1C (configuration not stated) | i | 2.63
48 | O=C(NC1=NCCS1)c1cccc(N2C(=O)c3ccccc3C2=O)c1 | i | 1.29
49 | Cc1cc(C)c(C#N)c(SCC(=O)Nc2ccc3c(c2)OCO3)n1 | i | -0.17
50 | OC(CNCc1ccccc1F)COc1cccc2ccccc12 (configuration not stated) | i | -0.03
51 | O=C(NNC(=O)C1CCN(S(=O)(=O)c2ccccc2)CC1)c1ccccc1O | i | 0.32
52 | Cc1cc(=O)oc(C)c1C(=O)N1CCN(Cc2ccc3c(c2)OCO3)CC1 | i | 0.74
53 | COc1ccc(OC)c(C2C(C(=O)c3cccs3)=C(O)C(=O)N2c2cc(C)on2)c1 (configuration not stated) | i | -0.91
54 | O=C(Nc1ccccc1Cl)c1ccc(COc2ccc3c(c2)CCC3)cc1 | i | 0.2
55 | COC(=O)Cc1[nH]n(-c2nc3ccccc3s2)c(=O)c1C(C)=Nc1ccc(OC)cc1 | i | 1.03
56 | O=Cc1s/c(=N\S(=O)(=O)c2ccccc2)n(CCCCl)c1Cl | i | 0.49
57 | COc1cccc(CNC(=O)N[C@@H](CC(C)C)C(=O)O)c1 | i | 0.04
58 | CCn1nc(C)cc1C(=O)OCC(=O)c1ccc(Cl)cc1 | i | -0.05
59 | COc1ccc(CCC(C)NCc2cccc(Br)c2)cc1 (configuration not stated) | i | 0.05
60 | CCOC(=O)Cn1nc(NC(=O)COc2ccc(F)cc2)cc1C | i | -0.34
61 | CS(=O)(=O)NCc1ccc(C(=O)NC2CCCCC2)cc1 | i | 1.15
62 | COc1ccc(C2CC(c3cccs3)=NN2C(=O)COC(=O)C2CCCCC2)cc1OC (configuration not stated) | i | 3.47
63 | C=CCSc1nnc(CNS(=O)(=O)c2ccc(C)cc2)n1C | i | 1.61
64 | CN(C)c1cccc(C(=O)N2CCCC(CCC(=O)NCc3ccccc3F)C2)c1 (configuration not stated) | i | -2.64
65 | COc1cccc(OCC(=O)NN=C2c3ccccc3-c3ccccc32)c1 | i | 0.68
66 | C/C(=N\NC(=O)c1cccc(C)c1O)c1ccc(NC(=O)Cc2ccccc2)cc1 | i | -0.45
67 | Cc1cc(N=Cc2c(O)ccc3cc(Br)ccc23)no1 | i | -1.39
68 | CCC(C(=O)O)n1nnc(-c2ccc(-c3ccc(OC)cc3)cc2)n1 (configuration not stated) | i | -0.79
69 | O=C(N/N=C/C=C\c1ccccc1[N+](=O)[O-])c1ccncc1 | i | 0.92
70 | O=C(Nc1ccccn1)c1ccc(-c2ccccc2)cc1 | i | 0.94
71 | COc1ccc(NC(=O)Nc2c(C)n(C)n(-c3ccccc3)c2=O)c(OC)c1 | i | -0.03
72 | CC[C@H](C)[C@@H](CN[C@H](CCCCNC)CNC)NCC1CCCC1 | i | 4.66
73 | CCn1c(=O)c(C(=O)NNC(=O)Cc2ccccc2)c(O)c2ccccc21 | i | -0.21
74 | Cn1cccc1C(=O)NC(=O)COC(=O)c1cc(Cl)ccc1[N+](=O)[O-] | i | -0.02
75 | COc1ccccc1N1CCN(/N=C(\C)c2ccccc2O)CC1 | i | -0.99
76 | Cc1ccc(-c2nc3c(=O)n(-c4ccccc4)c4c(c(=O)n(C)c(=O)n4C)c3o2)cc1 | i | -0.09
77 | COc1ccc(N2CCN(C(=O)CCS(=O)(=O)c3ccc(C)cc3)CC2)cc1 | i | -1.61
78 | CCN1C(=O)[C@H]2[C@@H](c3ccc(C)cc3)N3C(=O)N(c4cccc(Br)c4)C(=O)[C@@]3(CC)[C@H]2C1=O | i | -0.02
79 | Cc1cc(C)c2oc(C(=O)Nc3ccc(S(=O)(=O)Nc4nccs4)cc3)cc(=O)c2c1 | i | 3.57
80 | CC(NC(=O)COc1cccnc1[N+](=O)[O-])c1ccc(Cl)cc1Cl (configuration not stated) | i | -1.96
81 | CC(OC(=O)/C=C/c1cccc(Cl)c1)C(=O)NC1CCCCC1C (configuration not stated) | i | -0.65
82 | COc1ccc(-c2n(Cc3ccccc3)c3ccccc3[n+]2Cc2ccccc2)cc1 | -6.04* | 0.15*
83 | Cc1nn(Cc2ccccc2)c(C)c1C(=O)Nc1ccc(N2CCOCC2)cc1 | i | -0.92
84 | COc1cc2ccccc2cc1C(=O)N(CCN(C)C)c1nc2ccc(C)cc2s1 | i | 1.33
85 | Cc1cccc(C(=O)NCc2ccco2)c1 | i | 1.16
86 | CC(C)(C)c1ccc(SCCc2cccnc2)cc1 | i | 0.27
87 | CN(C(=O)COC(=O)/C=C/c1ccc2c(c1)OCO2)c1c(N)n(Cc2ccccc2)c(=O)[nH]c1=O | i | -0.07
88 | Cc1cccc(NC(=O)/C(C#N)=C\c2ccc(C(=O)O)cc2)c1 | i | -3.65
89 | COc1ccc(-c2c(C)nn3c(N4CCN(Cc5ccccc5)CC4)cc(C)nc23)cc1OC | i | 0.6
90 | COc1ccc(S(=O)(=O)N(CC(=O)Nc2ccc(S(=O)(=O)N3CCOCC3)cc2)c2ccccc2)cc1 | i | 2.35

(next part)
No. | Structure | KCNQ2 block | KCNQ2 block baseline
91 | O=C(c1ccccc1)c1nc2ccccc2n(CCCn2c(=O)c(C(=O)c3ccccc3)nc3ccccc32)c1=O | -9.01* | 0.16*
92 | CC(C)C[C@H](NC(=O)c1cc2cc(Cl)ccc2n1C)C(=O)N1CCC[C@H]1C(=O)O | i | 1.25
93 | CCCC[C@@H]1CCCO[C@@](C(=O)NCc2cc(C)n(C)n2)(C(F)(F)F)C1 | i | 0.87
94 | CC(=O)Nc1ccc(S(=O)(=O)Nc2ccc(NC(=O)c3ccco3)cc2)cc1 | i | 1.54
95 | CCOC(=O)C1=C(N)OC2=C(C(=O)CCC2)C1c1ccccc1OCC (configuration not stated) | i | -0.05
96 | Cn1ncc(Cl)c1C(=O)N/N=C/c1cccc(OC2CSC2)c1 | i | 0.56
97 | COc1cc(OC)nc(Oc2cccc(C(F)(F)F)c2)n1 | i | -2.38
98 | CN1CCN(c2ccccc2NC(=O)c2ccc(-c3ccc(Br)cc3)o2)CC1 | i | 0.08
99 | COc1ccccc1C(=O)NNC(=S)NC(=O)c1ccco1 | i | 0.55
100 | Oc1ccccc1C1=Nc2ccccc2N=C(c2cccs2)C1 | i | -1.65
101 | CCOc1nc(Nc2ccc(OC)cc2)nc(N2CCOCC2)n1 | i | 0.37
102 | Cc1ccc(CC(=O)N(C)CC(=O)Nc2ccc(N3CCOCC3)cc2)cc1C | i | -0.53
103 | NNC(=O)c1cccc(Cn2cc(Br)c([N+](=O)[O-])n2)c1 | i | -0.35
104 | COC(=O)C(Nc1ccccc1Cl)(c1cc(C)c(O)c(C)c1)C(F)(F)F (configuration not stated) | -7.99* | 0.46*
105 | Cc1ccc(C(=O)N/C(=C\c2ccco2)C(=O)NCCCn2ccnc2)cc1C | i | 1.95
106 | CC(C)CC(c1nnnn1C1CCCCC1)N1CCN(c2ncccn2)CC1 (configuration not stated) | i | 0.3
107 | Cc1ccnc(NS(=O)(=O)c2ccc(NC(=O)c3oc4ccc(F)cc4c3C)cc2)n1 | i | -1.36
108 | O=C(CNCc1ccccc1)Nc1cccc(Cl)c1Cl | -6.02* | 0.12*
109 | O=C(Cn1c(C(F)(F)F)nc2ccccc21)NCCN1CCCC1 | i | -0.39
110 | CC1CCCN(C(=O)COC(=O)CSc2ccc(C(N)=O)cc2[N+](=O)[O-])C1 (configuration not stated) | i | 1.41
111 | CCOC(=O)c1c(-c2ccc(OC)cc2)csc1/N=C/N(C)C | i | 0.07
112 | COc1ccc(C(CNC(=O)COc2cc(C)c(Cl)c(C)c2)N2CCCCC2)cc1 (configuration not stated) | -5.99* | 1*
113 | COCCN(C)C(=O)CCc1nnc(Cc2ccc(-c3ccccc3)cc2)o1 | i | -1.61
114 | Clc1ccc(CN2CCSCC2)cc1Cl | i | 0.45
